Compound activity as filed in PubChem BioAssay.
ALR H2O2 inh: human ALR oxidase inhibition via reduced H2O2 | P55789 | purified ALR, DTT oxidation, H2O2 HRP-luminol luminescence | inhibition, % (concentration not given with the values) | hit rate 3.8% among 290,000 | AID 485317;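 active = mean and each replicate at 75% or more; inconclusive = only one of the two met; inactive = neither met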;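 note: stock transfer was 7.5 nL into about 7.5 µL; 0% = neutral wells and 100% = wells with inactivated enzyme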
Target sequence (P55789 whole entry, looked up): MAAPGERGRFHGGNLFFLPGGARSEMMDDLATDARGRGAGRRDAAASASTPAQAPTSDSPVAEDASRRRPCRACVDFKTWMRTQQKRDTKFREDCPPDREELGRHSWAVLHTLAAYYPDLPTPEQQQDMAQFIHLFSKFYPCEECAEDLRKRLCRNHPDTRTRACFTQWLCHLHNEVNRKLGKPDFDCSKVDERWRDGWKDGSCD
rRNA inh HTS: inhibitors of bacterial rRNA selective over humanized ribosomes; hit rate 1.6% among 350,000; E. coli WT GFP vs humanized-ribosome RFP mutants, fluorescence, 24 h; stronger effect = lower value; DMSO median 0, no signal -100; AID 720706; GFP signal change (wild-type ribosome), % (test concentration not listed);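 active = significant combined selectivity score with lowered wild-type GFP, culture density cut under 30%, mutant RFP and density less affected; inactive = any of these conditions unmet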; note: one replicate is shown; some compounds called inactive have numbers as strong as hits
T cruzi repl: blocks replication of Trypanosoma cruzi; T. cruzi beta-gal in NIH3T3, luminescence, 90 h; inhibition, % (no concentration beside the values); hit rate 1.4% among 300,000;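 active = mean inhibition across valid replicates above about 55%, limit read from the data; inconclusive = mean below that limit but half or more replicates reach it; inactive = mean below it, under half of replicates reach it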;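 note: signal also drops with host cell toxicity which is not excluded here; 0% = plate median of DMSO wells and 100% = zero luminescence signal; higher percent means less beta-gal luminescence so fewer parasites; stock transfer was 50 nL into about 50 µL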
FGF22 binding: shifts melting point of recombinant human FGF22 | Q9HCT0 | calls only at 9.99 µM | hit rate 1.5% among 340,000 | recombinant FGF22 thermal shift, SYPRO orange fluorescence; percent of sucrose octasulfate shift, DMSO zero;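 active = melting point raised past a set limit in the mean and every replicate; inconclusive = no clear call; three in four hits are not shown here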
Target sequence (Q9HCT0 whole entry, looked up): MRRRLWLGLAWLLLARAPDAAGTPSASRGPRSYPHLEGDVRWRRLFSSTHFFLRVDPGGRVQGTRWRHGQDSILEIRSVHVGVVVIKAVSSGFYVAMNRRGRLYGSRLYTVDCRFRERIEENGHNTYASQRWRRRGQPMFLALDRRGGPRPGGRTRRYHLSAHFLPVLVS
Beta apoptosis: beta cell apoptosis inhibition; INS-1E cytokine-induced death, ATP luminescence, 48 h; percent of positive-control rescue, neutral wells zero; protection from apoptosis, % (test concentration not listed); hit rate 0.8% among 300,000; AID 435005;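 active = all replicates at 75% or more, or half of them and the mean; inconclusive = half reach 75% but not the mean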;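 note: 0% = cytokine-treated negative control wells and 100% = positive control rescue; higher means more ATP so stronger rescue from cytokine killing; wells of about 40 µL received 100 nL stock; the first replicate is given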
AF4-AF9 inh: MLL-AF4/AF9 protein interaction inhibition; inhibition, % at 10 µM; AlphaScreen, biotin-AF4 peptide binding to FLAG-AF9; hit rate 0.47% among 350,000; AID 651704;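 active = every replicate reaching a set inhibition limit, whatever the replicate mean, cut at about 25% in these data; inconclusive = mean inhibition reaches that limit but some replicates miss it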;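 note: 0% = plate neutral control median and 100% = total signal loss; the record names both 10 and 1 µM as test concentration; the first replicate is given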
Target sequence (P42568 whole entry, looked up): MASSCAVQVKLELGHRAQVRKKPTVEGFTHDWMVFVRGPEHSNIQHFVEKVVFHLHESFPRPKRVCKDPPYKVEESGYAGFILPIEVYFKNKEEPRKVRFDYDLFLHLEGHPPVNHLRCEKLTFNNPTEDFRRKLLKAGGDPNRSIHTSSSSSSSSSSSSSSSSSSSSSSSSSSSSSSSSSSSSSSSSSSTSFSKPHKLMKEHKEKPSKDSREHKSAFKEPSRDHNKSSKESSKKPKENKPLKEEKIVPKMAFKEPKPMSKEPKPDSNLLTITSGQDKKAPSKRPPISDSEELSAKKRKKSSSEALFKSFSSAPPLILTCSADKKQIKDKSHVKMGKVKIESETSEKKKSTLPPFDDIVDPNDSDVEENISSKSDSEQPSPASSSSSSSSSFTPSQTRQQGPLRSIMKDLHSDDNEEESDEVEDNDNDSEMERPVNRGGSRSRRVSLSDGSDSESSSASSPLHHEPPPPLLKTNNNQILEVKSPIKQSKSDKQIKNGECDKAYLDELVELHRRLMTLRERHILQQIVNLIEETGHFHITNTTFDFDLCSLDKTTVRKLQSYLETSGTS
RanGTP-Impb inh: disruptors of Ran-importin-beta complex formation – biochemical, FRET, CFP-Ran, YFP-importin-beta, homogeneous, primary screen | hit rate 1.1% among 300,000 | inhibition, % (no concentration beside the values) | cell-free CFP-Ran/YFP-importin-beta FRET ratio;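 active = most replicates above 15%; inconclusive = exactly half above 15%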;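 note: 0% = DMSO wells and 100% = Ran loaded with GDP instead of GTP; wells of about 40 µL received 100 nL stock; the first replicate is given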
Calb FLC: affects C. albicans growth with fluconazole; C. albicans CaCi-2 (fluconazole-resistant clinical isolate) + fluconazole, Alamar Blue growth, 48 h; hit rate 0.57% among 300,000; AID 1979; growth inhibition, % (test concentration not listed);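 active = most replicates above 75%; inconclusive = exactly half above 75%; inactive = most below 75%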;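 note: all wells also contain fluconazole at 8 µg/ml as a sub-toxic cotreatment; 0% = median of DMSO wells and 100% = median of geldanamycin control wells; wells of about 8 µL received 7.5 nL stock; the first replicate is given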
rRNA inh HTS OD600: also measured in rRNA inh HTS; calls as there; OD600 change, %; measured here: OD600 growth;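 optical density of the mix in the first replicate; 0 = DMSO median and -100 = no signal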
rRNA inh HTS RFP: also measured in rRNA inh HTS; calls as there; RFP signal change, %; measured here: RFP humanized mutant strains;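 first replicate; 0 = DMSO median and -100 = no signal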
Starred values were filed as active, the others as inactive; i = inactive; u = inconclusive; x = no result given; + = active, no number. Some of the compounds tested. The share of hits here may be higher or lower than overall.

SMILES	ALR H2O2 inh	rRNA inh HTS	rRNA inh HTS OD600	rRNA inh HTS RFP	T cruzi repl	FGF22 binding	Beta apoptosis	AF4-AF9 inh	RanGTP-Impb inh	Calb FLC
Cn1c(=O)c2c(nc(OCC3COC(C)(C)O3)n2Cc2ccccc2F)n(C)c1=O (stereo not drawn)	1	x	x	x	5	x	-5	x	u	3
O=C(N1CCOCC1)N1CCC(n2nnc3cc(F)ccc32)CC1	-39	x	x	x	1	x	-3	x	3.9	8
O=C(Cc1ccccc1)Nc1ccc(NC(=O)c2cccs2)cc1Cl	x	-1	8	0.3	8	i	-15	-9.7	0.5	-3
Oc1ccc(/C=C/c2ccnc3ccccc23)cc1	13	x	x	x	-3	x	-15	x	-9.7	-31
Cc1cc(C)c2c(=O)[nH]c(SCc3ccccc3C)nc2n1	-7	0	5	-3.5	0	i	-15	-21	-1.4	-3
CC(=O)Nc1ccc(NC(=O)c2ccc(N(Cc3ccccc3C)S(C)(=O)=O)cc2)cc1	-4	9	9	2.3	2	x	-1	-3.5	4.0	39
Cc1ccc(N(CC(=O)NCc2ccccc2)S(=O)(=O)c2c(C)noc2C)cc1	-3	4	1	-0.3	14	i	-1	-0.8	-1.6	-4
COc1ccc(S(=O)(=O)Nc2ccc(NC(C)=O)cc2)cc1Br	-6	-2	-3	-3.2	-12	i	-4	-3.2	x	-15
Cc1ccc(C(C(=O)NC2CCCC2)N(Cc2ccc3c(c2)OCO3)C(=O)c2snc(C(N)=O)c2N)cc1 (stereo not drawn)	-2	11	-1	-4.8	31	i	8	-38	-3.1	16
CC(Sc1nc2ccccc2s1)C(=O)N1CCOCC1 (stereo not drawn)	99*	x	x	x	-7	x	2	x	3.7	-3
COC(=O)CNC(=O)/C=C/c1ccc(OC)cc1	-4	5	-3	1.6	-13	i	1	-0.7	-1.5	-6
CCn1c(O)c(C=NCc2ccccc2)sc1=S	x	-17	-11	3.4	-3	+	3	x	-4.7	3
O=C(Nc1ccc(O)c2c(=O)cc(-c3ccccc3Cl)oc12)c1ccc(F)cc1	x	11	12	-0.2	3	i	x	x	-0.2	-4
CC(C)c1ccccc1NC(=O)c1cccnc1	-1	x	x	x	-5	x	-7	x	1.5	11
Cc1ccc(CCNCc2c(C(=O)O)c(C)n(-c3ccccc3)c2C)cc1	x	2	0	1.1	-7	i	x	0.6	-1.7	-3
COc1ccc(NC2CCCN(C(=O)c3ccc(C(C)=O)s3)C2)cc1 (stereo not drawn)	92*	3	6	-3.7	-4	i	-5	2.8	5.8	4
O=S(=O)(c1ccc(F)cc1)c1nc(-c2ccco2)oc1Nc1ccccc1	2	-16	-15	-7.1	4	i	2	3.0	0.0	-3
CC(C)(O)C(O)COc1c2ccoc2cc2oc(=O)ccc12 (stereo not drawn)	-7	2	-4	-9.2	-7	i	-3	-11	2.9	1
COc1ccccc1C(CNC(=O)c1oc2ccccc2c1C)N1CCCC1 (stereo not drawn)	-5	2	-3	1.8	x	i	2	10	x	x
CC(=O)N1CCN(Cc2nc3cc(NC(=O)c4cccc(Br)c4)ccc3n2C)CC1	15	-19	-23	-1.3	4	i	21	-6.3	-1.1	2
c1ccc(-c2ccc(CN3C[C@@H]4C(c5ccccc5)C5(c6cccnc6)CC4(C5)[C@H]3c3ccccc3)cc2)cc1 (stereo partly drawn)	x	4	7	3.4	22	i	3	0.3	0.6	11
Cc1ccc(Sc2oc(/C=N/n3cnnc3)cc2Br)cc1	-1	1	-2	-2.1	6	x	-2	-2.9	-3.8	28
Cc1ccc(S(=O)(=O)NCCC(=O)N2CCC(C)CC2)cc1	-3	x	x	x	x	i	-4	-5.2	x	x
CC1(C)CC(=O)C(C=Nc2cc(C(=O)c3ccccc3)ccc2N)=C(O)C1	-7	-11	-10	42	-10	i	-10	2.8	-27	7
Cc1cc(OCc2cc(C(=O)NCC3(C)COC3)no2)cc(C)c1Cl	3	-3	-10	2.1	-8	i	-4	1.1	1.7	8
O=C(COc1ccc(Cl)cc1Cl)NCCCn1ccnc1	x	x	x	x	3	x	-12	x	-4.8	2
Cc1nn(-c2ccccc2)c(C)c1/C=C/C(=O)OCC(=O)Nc1ncc(Cl)cc1Cl	x	2	-6	1.9	3	i	10	-0.3	-3.7	-8
COc1ccc(S(=O)(=O)N2CCCCC2)cc1NC(=O)Cc1c[nH]c2ccccc12	-15	x	x	x	4	x	11	x	-2.2	4
O=C(Cc1ccccc1)NC(c1ccco1)c1c(O)ccc2ccccc12 (stereo not drawn)	-7	-49	-68	-4.1	35	i	-13	7.2	0.8	-14
COc1cc(-n2c(=O)c3ccccc3n(Cc3cccc(C)c3)c2=O)cc(OC)c1OC	x	14	10	0.0	9	i	3	-43	1.5	6
COc1ccc(S(=O)(=O)Nc2c(C)cc(C)cc2C)c2cccnc12	1	-45	-51	3.7	11	i	3	0.1	-3.6	1
Cc1ccc(CCNC(=O)C2CCCN(S(=O)(=O)c3c(C)noc3/C=C/N(C)C)C2)cc1 (stereo not drawn)	5	1	1	-3.4	x	i	1	2.9	x	x
Cc1cnn(-c2cc(N/N=C/c3ccccc3Cl)ncn2)c1	x	x	x	x	-11	x	-1	x	5.7	10
Cn1nccc1C(=O)N/N=C/c1c(O)ccc2ccccc12	2	-20	-11	-10	-3	i	100*	3.5	u	0
CCN(CC)C(=O)c1ccc(Nc2nnc(-c3ccc(O)cc3)c3ccccc23)cc1	3	-20	-22	-6.5	11	i	x	-9.5	3.8	11
O=C(CN(Cc1ccco1)C(=O)c1ccccc1)Nc1ccc(Cl)c(Cl)c1	-12	x	x	x	18	x	0	x	-0.3	9
O=C1CCC(=O)N1CC(=O)N1c2ccccc2Sc2ccccc21	-3	x	x	x	6	x	-7	x	-5.0	-6
CCOc1ccc(N2CC(C(=O)Nc3ccc(S(=O)(=O)N4CCCCC4)cc3)CC2=O)cc1 (stereo not drawn)	-3	12	27	2.6	-8	i	1	-9.8	-1.0	-3
Cc1ccccc1NC(=S)N(Cc1ccccn1)Cc1ccccc1Cl	-23	-23*	-18*	-2.1*	21	i	0	0.7	2.9	-17
COc1cccc(/C=N/n2c(SC)nnc2-c2ccccc2)c1O	x	x	x	x	3	x	6	x	-9.4	-5
O=C(Nc1ccccc1-c1ccccc1)C1CCCN(c2ncccn2)C1 (stereo not drawn)	0	x	x	x	-4	x	-4	x	0.2	17
COC(=O)c1ccc(N2C(=O)CC(N(C)CCc3ccc(OC)c(OC)c3)C2=O)cc1 (stereo not drawn)	0	x	x	x	-11	x	-2	x	1.0	-4
Cc1cc(C)cc(Oc2nc(C(F)(F)F)nc3ccccc23)c1	x	x	x	x	-37	x	7	x	-2.7	4
COCCn1c(=S)[nH]c2cc(C(=O)N(CCO)Cc3ccccc3)ccc2c1=O	4	-8	-9	-0.5	-6	i	3	-2.2	-0.2	-3
COc1ccc(-c2csc(Nc3ccccc3)[n+]2Cc2ccccc2)cc1	x	2	5	2.0	18	i	7	9.6	0.8	14
COc1ccc(CNC(=O)C2CCCN(c3nn4c(=O)cc(C)nc4s3)C2)cc1 (stereo not drawn)	3	18	12	3.7	6	i	-8	-1.9	-0.9	-5
COc1ccc(CCNC(=O)C(=O)NCc2ccc(C)cc2)cc1OC	-27	12	12	-12	-7	i	-2	8.8	1.2	-15
Cc1cccc(NC(=S)NC(=O)CC2CC(C)(C)OC2=O)c1 (stereo not drawn)	18	x	x	x	-1	x	-4	x	-1.4	-18
CCN(CC)CCN(C(=O)c1ccc(S(=O)(=O)N(C)C2CCCCC2)cc1)c1nc2ccc(OC)cc2s1	-21	-3	-3	-1.6	65*	i	-1	0.0	10	-6
O=C(Nc1ccc(Cc2ccncc2)cc1)C1CCC(N2C(=O)C3CC=CCC3C2=O)CC1 (stereo not drawn)	-3	x	x	x	16	x	-1	x	-1.1	-1
COc1ccc(-c2csc(NC(=O)Cn3nc(C)cc3C)n2)cc1	-3	x	x	x	0	x	0	x	0.8	2
CN(C(=O)CSc1nc2cc([N+](=O)[O-])ccc2n1-c1ccc(F)cc1)C1CCS(=O)(=O)C1 (stereo not drawn)	-15	x	x	x	-3	x	3	x	-1.3	30
CCOC(=O)N1CCN(C(=O)CCSCCc2ccncc2)CC1	-14	x	x	x	-11	x	0	x	1.0	-2
O=C(NCC(c1ccco1)N1CCN(c2ccccc2F)CC1)C(=O)NC1CC1 (stereo not drawn)	-7	6	7	-1.5	-2	i	-3	-1.1	0.2	-1
COc1ccccc1/C=C1\SC(=S)N(CCC(=O)N2CCN(C)CC2)C1=O	-2	-19*	-3.6*	-1.5*	9	i	-27	16	3.4	-2
N#C/C(=C/c1ccc(N2CCOCC2)o1)c1ccc(Cl)cc1	u	x	x	x	13	x	14	x	6.9	1
COc1ccc(CC(=O)Nc2ccc(C(C)=O)cc2)cc1	0	3	2	2.7	-17	i	-4	0.7	-3.5	-5
Cc1sc2ccc3sccc3c2[n+]1C	41	3	4	0.8	18	i	-10	-6.6	u	9
CCN(CC)S(=O)(=O)c1ccc(NC(=O)COc2c(OC)cccc2OC)cc1	6	x	x	x	-2	x	4	x	-3.8	-4
COc1ccc(CN2CCN(C(C)C(=O)N(C)Cc3cccc(F)c3)CC2)cc1OC (stereo not drawn)	-95	8	20	3.9	18	i	-4	0.1	2.5	x
Further results:
SMILES	ALR H2O2 inh	rRNA inh HTS	rRNA inh HTS OD600	rRNA inh HTS RFP	T cruzi repl	FGF22 binding	Beta apoptosis	AF4-AF9 inh	RanGTP-Impb inh	Calb FLC
Cc1ccc(C)c(N2CCN(S(=O)(=O)c3ccc4[nH]c(=O)c(=O)[nH]c4c3)CC2)c1	0	x	x	x	-14	x	-6	x	5.0	27
O=C(c1ccc(N2C(=O)C3C4c5ccccc5C(c5ccccc54)C3C2=O)cc1)N1CCOCC1 (stereo not drawn)	-5	x	x	x	-3	x	-2	x	1.0	-2
C[n+]1ccccc1/C=C/c1cc(Br)ccc1O	36	-21*	-9.0*	1.6*	-3	i	-12	15	-5.2	-7
S=C(NCCc1ccccc1)N/N=C/c1cccs1	x	x	x	x	1	i	6	2.5	3.2	13
C(=N\N1CCN(Cc2ccccc2)CC1)/c1ccc(-c2ccccc2)cc1	-2	5	7	2.5	-28	i	9	-3.8	7.1	-14
Cc1cccc(C)c1OCC(=O)N/N=C/c1cccnc1	-7	4	3	-1.3	5	i	-1	-0.1	-2.8	-1
COc1cccc(NC(=O)C(=O)c2cn(CC(=O)N3CCCC3)c3ccccc23)c1	-1	3	14	4.0	2	i	11	6.8	-2.0	2
CC1CCN(C2CCN(C(=O)c3ccccc3F)CC2)CC1	1	x	x	x	-32	i	-5	1.1	9.0	2
